Compound activity from PubChem.
rRNA inh HTS – inhibits bacterial ribosomal RNA function over humanized ribosomes. AID 720706. actives 1.6% (n = 350,000). GFP signal change (wild-type ribosome), % (concentration not given with the values). E. coli WT GFP vs humanized-ribosome RFP mutants, fluorescence, 24 h; active compounds read low; DMSO median 0, no signal -100;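 active = significant combined selectivity score with lowered wild-type GFP, culture density cut under 30%, mutant RFP and density less affected; inactive = any of these conditions unmet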; also: one replicate is shown; some compounds called inactive have numbers as strong as hits
rRNA inh HTS OD600 – also measured in rRNA inh HTS; calls as there; OD600 change, %; measured here: OD600 growth;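 optical density of the mix in the first replicate; 0 = DMSO median and -100 = no signal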
rRNA inh HTS RFP – further read-out of rRNA inh HTS, marked with its call; RFP signal change, %; measured here: RFP humanized mutant strains;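 first replicate; 0 = DMSO median and -100 = no signal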
The depositor's hits bear a star; & = joins results of further samples. An excerpt; the hit share may differ from the screen's.

SMILES	rRNA inh HTS	rRNA inh HTS OD600	rRNA inh HTS RFP
C[C@H](CO)N1C[C@H](C)[C@H](CN(C)Cc2ccncc2)OCc2cn(nn2)CCCC1=O	1	8	0.5
CNC[C@@H]1Oc2c(NC(=O)c3nc4ccccc4s3)cccc2C(=O)N([C@H](C)CO)C[C@@H]1C	-4	4	1.5
COCC(=O)Nc1ccc2c(c1)C(=O)N(C)[C@H]1CC[C@H](CC(=O)O)O[C@@H]1CO2	4	9	-3.1
COc1ccc(NC(=O)N(C)C[C@@H]2OCCCC[C@@H](C)Oc3ccc(NS(=O)(=O)c4ccc(Cl)cc4)cc3C(=O)N([C@H](C)CO)C[C@@H]2C)cc1	-2	-11	-1.9
O=C(C[C@@H]1CC[C@@H]2[C@H](COC[C@H](O)CN2C(=O)c2cnccn2)O1)NCc1ccc(Cl)cc1	-1	3	0.1
C[C@H](CO)N1C[C@H](C)[C@@H](CN(C)C(=O)Nc2ccc(C(F)(F)F)cc2)Oc2ccc(NC(=O)Nc3ccc(F)cc3)cc2C1=O	1	-2	-0.4
CC(C)C#Cc1cnc2c(c1)C(=O)N([C@H](C)CO)C[C@H](C)[C@@H](CN(C)Cc1ccccc1F)O2	1	5	-0.9
COc1ccc(C[C@H]2CCn3cc(nn3)COC[C@@H](C)NC2=O)cc1	0	-5	-3.8
COc1ccc(NC(=O)N(C)C[C@H]2Oc3c(NS(=O)(=O)c4cn(C)cn4)cccc3C(=O)N([C@H](C)CO)C[C@H]2C)cc1	2	13	-0.8
COc1ccc(CN(C)C[C@H]2Oc3ccc(NC(=O)c4ccncc4)cc3CC(=O)N([C@@H](C)CO)C[C@@H]2C)cc1	0	2	0.3
CCC(=O)N1CC(=O)N2[C@H](CO)[C@H](c3ccc(-c4ccncc4)cc3)[C@@H]2C1	2	1	-1.4
CCc1nc2c(OCc3ccc(F)cc3)cccn2c1N(C)C(=O)c1ccc(C)cc1	-12	-35	1.1
C[C@@H]1CN([C@@H](C)CO)C(=O)c2cc(NC(=O)C3CC3)ccc2O[C@H]1CN(C)CC1CCCCC1	3	5	-2.6
C[C@H]1CN([C@@H](C)CO)S(=O)(=O)c2ccc(-c3cncnc3)cc2O[C@H]1CN(C)Cc1ccccc1	-2	7	1.0
C[C@@H]1CCCCO[C@@H](CN(C)S(=O)(=O)c2ccc(F)cc2)[C@@H](C)CN([C@H](C)CO)C(=O)c2cc(NC(=O)Nc3ccc(F)cc3)ccc2O1	5	13	-0.1
COc1ccc(-c2ccc3c(c2)O[C@H](CN(C)Cc2cccnc2)[C@@H](C)CN([C@@H](C)CO)S3(=O)=O)cc1	-35	-46	27
COc1ccc(CNC(=O)C[C@@H]2C[C@@H]3c4cc(NC(=O)NC5CCCC5)ccc4O[C@@H]3[C@H](CO)O2)cc1	5	0	-0.4
CC=Cc1ccc2n(c1=O)C[C@H]1[C@H](CO)[C@@H](C(=O)NCCC)N(C(=O)CC)[C@@H]21 (mixture of isomers)	2	6	-2.1
CC1=C(C(=O)N(C(C)C)C(C)C)CC(CC(=O)NCCCN(C)C)C(=O)N1Cc1ccc(F)cc1 (stereo unspecified)	12	13	-1.2
C[C@H]1CCCCO[C@H](CN(C)C(=O)C2CCCCC2)[C@@H](C)CN([C@@H](C)CO)C(=O)c2cc(NC(=O)CCCN(C)C)ccc2O1	5	5	-0.4

Given comma-delimited: part of the list above
Structure,rRNA inh HTS,rRNA inh HTS OD600,rRNA inh HTS RFP
CC=Cc1ccc2n(c1=O)C[C@H]1[C@H](CO)[C@@H](C(=O)NCCC)N(C(=O)CC)[C@@H]21 (mixture of isomers),2,6,-2.1
CC1=C(C(=O)N(C(C)C)C(C)C)CC(CC(=O)NCCCN(C)C)C(=O)N1Cc1ccc(F)cc1 (stereo unspecified),12,13,-1.2

(more compounds)
SMILES	rRNA inh HTS	rRNA inh HTS OD600	rRNA inh HTS RFP
C[C@@H]1CN([C@H](C)CO)C(=O)Cc2cc(NC(=O)CCN3CCOCC3)ccc2O[C@@H]1CN(C)Cc1ccc(C(=O)O)cc1	-1	5	-2.3
O=C(C[C@@H]1CC[C@H](NC(=O)Nc2ccc(C(F)(F)F)cc2)[C@@H](CO)O1)NCc1ccccn1	-5	-1	-0.5
CCCCNC(=O)c1nc(C2CCNCC2)oc1-c1cccc(C(F)(F)F)c1	14	5	0.5
C[C@@H]1CN([C@H](C)CO)S(=O)(=O)c2ccc(C#CCN(C)C)cc2O[C@@H]1CN(C)Cc1ccccc1F	2&-5	-4&5	-0.8&1.2
CCC(=O)Nc1ccc2c(c1)C(=O)N(C)C[C@H](OC)[C@H](C)CN(C(=O)CN1CCOCC1)[C@H](C)CO2	3	2	-0.1
COCCNC(=O)C[C@H]1C=C[C@H](NS(=O)(=O)c2ccc(C)cc2)[C@@H](CO)O1	2	1	-1.4
O=C(C[C@@H]1CC[C@@H]2[C@H](COC[C@@H](O)CN2Cc2ccc(Oc3ccccc3)cc2)O1)Nc1nccs1	-1	-42	19
O=C(C[C@@H]1CC[C@@H]2[C@H](COC[C@@H](O)CN2Cc2ccc(C(F)(F)F)cc2)O1)NCCc1ccccc1	-3	-6	-0.5
C[C@@H]1CCCCO[C@H](CN(C)S(=O)(=O)c2ccc(Cl)cc2)[C@H](C)CN([C@@H](C)CO)C(=O)c2cc(NC(=O)c3ccccc3)ccc2O1	0	-1	1.4
Cc1cc(C(=O)Nc2ccc3c(c2)C(=O)N(C)[C@@H]2CC[C@H](CC(=O)N[C@H](C)c4ccccc4)O[C@H]2CO3)no1	3	13	0.2

Structural class, the compounds so far with a Cl atom (3)
SMILES	rRNA inh HTS	rRNA inh HTS OD600	rRNA inh HTS RFP
COc1ccc(NC(=O)N(C)C[C@@H]2OCCCC[C@@H](C)Oc3ccc(NS(=O)(=O)c4ccc(Cl)cc4)cc3C(=O)N([C@H](C)CO)C[C@@H]2C)cc1	-2	-11	-1.9
O=C(C[C@@H]1CC[C@@H]2[C@H](COC[C@H](O)CN2C(=O)c2cnccn2)O1)NCc1ccc(Cl)cc1	-1	3	0.1
C[C@@H]1CCCCO[C@H](CN(C)S(=O)(=O)c2ccc(Cl)cc2)[C@H](C)CN([C@@H](C)CO)C(=O)c2cc(NC(=O)c3ccccc3)ccc2O1	0	-1	1.4

More structures follow.
SMILES	rRNA inh HTS	rRNA inh HTS OD600	rRNA inh HTS RFP
C[C@@H]1CN([C@H](C)CO)C(=O)Cc2cc(NC(=O)Nc3ccccc3)ccc2O[C@@H]1CN(C)S(C)(=O)=O	4	5	-1.0
C[C@@H]1CN([C@@H](C)CO)C(=O)Cc2cc(NC(=O)C3CC3)ccc2O[C@H]1CN(C)C(=O)Nc1ccc(F)cc1	3	6	1.1
COCCNC(=O)C[C@H]1C[C@@H]2c3cc(NC(=O)Nc4ccccc4)ccc3O[C@@H]2[C@H](CO)O1	-1	3	-0.8
CO[C@H]1CN(C)C(=O)c2ccc(NS(=O)(=O)c3ccccc3Cl)cc2OC[C@@H](C)NC[C@@H]1C	2	-2	0.6
C[C@H](CO)N1C[C@H](C)[C@@H](CN(C)CC2CCCCC2)OCCCC[C@H](C)Oc2ccc(NS(=O)(=O)c3ccc(F)cc3)cc2C1=O	1	-6	1.9
CCCNC(=O)c1cc2c(c(-c3cccc(-c4ccncc4)c3)n1)[C@H](CCO)N(S(=O)(=O)CC)C2	-3	-5	0.5
N[C@H]1CC[C@H](CCn2cc(C3CCCCC3)nn2)O[C@@H]1CO	-1	2	-0.7
CNC(=O)C[C@H]1CC[C@@H]2[C@@H](COc3ccc(NC(=O)c4ccccc4F)cc3C(=O)N2C)O1	1	6	-1.7
CC1(C)OC(=O)C2=C(C[C@@H](C3CCCCC3)O[C@H]2c2ccccc2)O1	-26	-31	-9.5
C[C@H](CO)N1C[C@H](C)[C@H](CN(C)Cc2cccc(F)c2)Oc2ncc(C#CC(C)(C)O)cc2C1=O	-2	-2	-3.9

Not a retest: entries from further up.
SMILES	rRNA inh HTS	rRNA inh HTS OD600	rRNA inh HTS RFP
C[C@@H]1CN([C@H](C)CO)C(=O)Cc2cc(NC(=O)Nc3ccccc3)ccc2O[C@@H]1CN(C)S(C)(=O)=O	4	5	-1.0
C[C@@H]1CN([C@@H](C)CO)C(=O)Cc2cc(NC(=O)C3CC3)ccc2O[C@H]1CN(C)C(=O)Nc1ccc(F)cc1	3	6	1.1

(list continues)
SMILES	rRNA inh HTS	rRNA inh HTS OD600	rRNA inh HTS RFP
COc1ccc(C#Cc2ccc([C@H]3[C@H]4CN(C(=O)Nc5cccc(F)c5)CCCCN4[C@H]3CO)cc2)cc1	0	-14	-5.0
C[C@@H]1CN([C@@H](C)CO)C(=O)c2cc(NC(=O)Cc3ccccc3)ccc2O[C@@H](C)CCCCO[C@@H]1CN(C)C(=O)c1ccncc1	0	0	-3.6
C/C=C/c1cnc2c(c1)C(=O)N([C@@H](C)CO)C[C@@H](C)[C@@H](CN(C)S(=O)(=O)c1cn(C)cn1)O2	4	2	-1.1
C[C@@H]1CN([C@@H](C)CO)C(=O)Cc2cc(NC(=O)CCCCCC(=O)Nc3ccccc3N)ccc2O[C@@H]1CN(C)CC1CC1	1	9	1.9
Cc1cc(Br)cn2c(CC(C)(C)C)c(C3CCCCC3)nc12	10	15	-4.4
CCCNC(=O)C[C@H]1CC[C@@H]2[C@@H](COc3ccc(NC(=O)Nc4cccc(C)c4)cc3C(=O)N2C)O1	-3	-12	3.5
COc1cccc(NC(=O)C[C@@H]2CC[C@H]3[C@@H](COc4ccc(NC(=O)C5CCOCC5)cc4C(=O)N3C)O2)c1	2	4	-0.3
C[C@H](NC(=O)[C@@H]1[C@@H](CO)[C@@H]2Cn3c(cccc3=O)[C@@H]2N1CC1CCCC1)c1ccccc1	-2	-12	6.4
C[C@H]1CN([C@@H](C)CO)C(=O)c2cc(NC(=O)c3ccncc3)ccc2O[C@H]1CN(C)S(C)(=O)=O	4	12	-0.2
O=C(C[C@H]1CC[C@@H]2[C@H](COC[C@H](O)CN2S(=O)(=O)c2cccc(Cl)c2)O1)Nc1ccccc1	-6	-15	0.0
C[C@H](NC(=O)[C@@H]1CCCN1C(=O)[C@@H]1CCCN1C(=O)OC(C)(C)C)c1ccccc1	-1	2	-1.5
CN1CCN(c2ccc(CNC(=O)C3(C)Cc4c(-c5ccccc5)ccnc4O3)cc2)CC1 (stereo unspecified)	-4	-4	4.8
Cc1cccc(-c2ccc([C@H]3[C@H]4CN(C(=O)c5ccccc5)CC(=O)N4[C@H]3CO)cc2)c1	5	-27	-2.3
C[C@@H]1CN([C@H](C)CO)C(=O)c2cc(C#CC3CCCC3)cnc2O[C@H]1CN(C)C(=O)Nc1ccccc1	-4	-12	4.1
N#C[C@@H]1[C@H](c2ccccc2C2=CCCC2)[C@@H](CO)N1C(=O)C1CCC1	-7	-6	0.4
C[C@H]1CN([C@@H](C)CO)C(=O)c2cc(C#CCc3ccccc3)cnc2O[C@H]1CN(C)Cc1cccc(C(=O)O)c1	-2	-2	-1.8
O=C(N[C@H]1CC[C@@H](CCNS(=O)(=O)c2cccc(Cl)c2)O[C@@H]1CO)c1ccncc1	2	-2	0.7
C[C@H](CO)N1C[C@H](C)[C@H](CN(C)C)Oc2ncc(-c3ccncc3)cc2C1=O	-1	0	-4.6
C[C@H](CO)N1C[C@H](C)[C@H](CN(C)S(=O)(=O)c2cn(C)cn2)Oc2c(NC(=O)Nc3cccc4ccccc34)cccc2C1=O	-2	-4	0.4
C[C@H](CO)N1C[C@H](C)[C@@H](CN(C)C(=O)Nc2ccc(C(F)(F)F)cc2)Oc2c(NC(=O)C3CCOCC3)cccc2C1=O	2	6	-3.0
C[C@@H]1CN([C@H](C)CO)C(=O)c2cc(NC(=O)Nc3ccc(F)cc3)ccc2O[C@@H]1CN(C)Cc1ccc(C(=O)Nc2ccccc2N)cc1	-3	-5	-0.1
COc1ccc(CN(C)C[C@@H]2Oc3ccc(NS(=O)(=O)c4ccc(C)cc4)cc3CC(=O)N([C@H](C)CO)C[C@@H]2C)cc1	4	-12	3.9
Cc1noc(C)c1S(=O)(=O)Nc1ccc2c(c1)CC(=O)N([C@H](C)CO)C[C@@H](C)[C@H](CN(C)Cc1ccc(C(F)(F)F)cc1)O2	-2	-2	6.5
O=C(C[C@@H]1CC[C@H]2[C@@H](COC[C@H](O)CN2C(=O)Nc2ccc(Cl)c(Cl)c2)O1)NCc1ccncc1	-55	-73	-9.4
O=C(C(O)c1ccccc1)N1CCN(S(=O)(=O)c2ccc(C(F)(F)F)cc2)CC1 (stereo unspecified)	18	19	3.4
O=C(C[C@@H]1C[C@H]2c3cc(NC(=O)CC4CC4)ccc3O[C@H]2[C@H](CO)O1)NCCN1CCCCC1	5	6	-3.4
CC(C)CN1C(=O)c2ccccc2C1c1nnnn1-c1ccc2c(c1)OCCO2 (stereo unspecified)	4	1	4.0
CO[C@@H]1CN(C)C(=O)c2ccc(NC(=O)NC(C)C)cc2OC[C@@H](C)N(C(=O)CN(C)C)C[C@@H]1C	0	0	0.0
CCC(=O)N1C[C@@H](O)COC[C@H]2O[C@H](CC(=O)NCC3CCCCC3)CC[C@@H]21	2	10	1.0
CCCCNC(=O)C1(C)CCCCN1C(=O)c1ccc(C)c(F)c1 (stereo unspecified)	4	7	-0.6
C[C@H]1CN([C@@H](C)CO)C(=O)Cc2cc(NC(=O)CCN3CCOCC3)ccc2O[C@H]1CN(C)C(=O)Nc1ccccc1	5	8	-1.9
O=C(N[C@H](c1cccc(Br)c1)[C@@H]1CCCC=C1c1ccccc1)C(F)(F)F	9	20	-2.6
O=C(C[C@@H]1C=C[C@H](NS(=O)(=O)c2ccc(F)cc2)[C@H](CO)O1)N1CCc2ccccc2C1	1	4	-1.5
C[C@@H]1CN([C@@H](C)CO)S(=O)(=O)c2ccc(-c3cccnc3)cc2O[C@H]1CN(C)Cc1ccccn1	0	-2	-4.0
COc1ccc(S(=O)(=O)Nc2ccc3c(c2)C(=O)N([C@H](C)CO)C[C@H](C)[C@H](CN(C)S(=O)(=O)c2ccccc2)OCCCC[C@@H](C)O3)cc1	-4	-7	-3.7
